BasE inh: blocks the Acinetobacter baumannii siderophore enzyme BasE; inhibition, % (no concentration beside the values); purified BasE, fluorescence polarization binding displacement; AID 485350; 84,000 compounds, 0.1% hits;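 active = both replicates above 25% with normal brightness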;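 note: 0% = negative plate control signal and 100% = positive plate control signal; stock transfer was 100 nL into about 30 µL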
LANA-nucl inh: LANA-nucleosome interaction inhibition; 51,000 compounds, 0.3% hits; AID 720717; FITC-LANA1-23 / chicken nucleosome fluorescence polarization; stronger effect = lower value; z-score (concentration not given with the values);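 active = both repeat wells score below -2 in polarization z-score versus plate sample wells, excluding overly bright wells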;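 note: 100 nL library stock added to about 30 µL; numbers are from one replicate; some results filed as inactive read as strong as hits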
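Material: Purified chicken nucleosomes with FITC-labelled LANA N-terminal peptide (1-23) | Reagent: 50 nM FITC-LANA1-23 probe | Medium: TEN-BT buffer, pH 7.5 | Times: 10–45 min incubation at room temperature | Detection: Fluorescence polarization | Replication: Duplicates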
The depositor's hits bear a star; / = no result given. These rows are one share of the data. The share of hits here may be higher or lower than overall.

Sequence of screens: BasE inh, LANA-nucl inh
COc1ccc(C2CC(C3C(=O)c4ccccc4C3=O)=NN2)cc1 (configuration not stated)
    4.1, 0.47
Cc1ccccc1CN1C(=O)C2CC=CCC2C1=O (configuration not stated)
    -1.1, /
CSc1nc(/N=C/N(C)C)n(-c2c(Cl)cc(Cl)cc2Cl)n1
    1.3, -0.3
CCOC(=O)c1sc2nc(-c3ccccc3)cn2c1C
    0.7, /
COC(=O)/C=c1\sc2n(c1=O)CN(CCCN1CCOCC1)CN=2
    -0.5, -0.45
Fc1cccc(-c2nc3cc(N4CCOCC4)c(N4CCOCC4)cc3[nH]2)c1
    3.0, 0.76
O=C1NCCN1CCNC(=S)Nc1cc(C(F)(F)F)cc(C(F)(F)F)c1
    -0.5, /
O=C(c1cnn(-c2ccccc2)n1)N(Cc1nc2ccccc2c(=O)[nH]1)CC1CCCO1 (configuration not stated)
    -31, /
CCCC(=O)c1cc2c(cc1N)OCCO2
    -0.2, 0.16
O=C(CSc1nc(C(F)(F)F)cc(=O)[nH]1)N1CCN(c2ccccc2)CC1
    0.2, 0.72
CC(C)Oc1ccc2c(=O)c(-c3ccccc3)coc2c1
    /, -0.38
O=C(COc1ccc(F)cc1)N/N=C1\CCS(=O)(=O)c2ccc(F)cc21
    0.2, /
CCCNC(=O)Cn1c(-c2cccs2)cc2ccccc21
    -1.0, -1.2
CCOC(=O)c1c(NC(C)=O)c2c3c(sc2n1Cc1nc(-c2ccccc2OC)oc1C)CCCC3
    -1.0, -0.14
Cc1ccc(CN2C(=O)CCC2(C)C(=O)NCCC(C)C)cc1 (configuration not stated)
    -0.8, 0.84
NC(=S)c1cccc(Oc2ccccc2)c1
    0.8, /
CN1C(=O)CS/C1=C\C#N
    0.1, /
Cc1c(S(=O)(=O)NC2CCCCNC2=O)sc2ccc(Cl)cc12 (configuration not stated)
    -0.1, 0.28
CCOC(=O)c1cnc(SCC(=O)OCC(=O)N2CCc3ccccc32)nc1N
    -1.1, /
Oc1c(CN2CCCCCC2)cc(Cl)c2cccnc12
    -1.0, /
N#CCSc1nc2ccccc2c(=O)n1-c1ccccc1
    -1.6, 2.7
Cc1cc(N2CCCC2=O)cc(C)c1CN1C(=O)c2ccccc2C1=O
    2.5, -0.23
Cc1cccc(NC(=O)Nc2noc3c2COc2ccccc2-3)n1
    1.3, 0.062
O=C(Cc1c(F)cccc1Cl)Nc1ccc(N2CCOCC2)cc1N1CCOCC1
    -0.9, /
Cc1ccc2[nH]c(=O)c(CNc3ccc(N4CCCCC4)cc3C(=O)N3CCOCC3)cc2c1
    -2.3, 2.7
CN(Cc1ccccc1)S(=O)(=O)c1cc2c3c(c1)CCC(=O)N3CCC2
    4.4, -0.27
C=CCn1c(=NC(C)=O)sc2cc(F)ccc21
    -3.9, 0.8
O=C(CCCOc1ccccc1)N1CCN(c2ccccn2)CC1
    2.0, /
COc1cc(N)ccc1OC(C)C
    1.4, 0.27
O=C(NCC(=O)N1CCCC1)C1CCCCC1
    -0.9, /

A different layout for 4 compounds above.
CC(C)Oc1ccc2c(=O)c(-c3ccccc3)coc2c1
- BasE inh = /
- LANA-nucl inh = -0.38
Oc1c(CN2CCCCCC2)cc(Cl)c2cccnc12
- BasE inh = -1.0
- LANA-nucl inh = /
O=C1NCCN1CCNC(=S)Nc1cc(C(F)(F)F)cc(C(F)(F)F)c1
- BasE inh = -0.5
- LANA-nucl inh = /
CCCNC(=O)Cn1c(-c2cccs2)cc2ccccc21
- BasE inh = -1.0
- LANA-nucl inh = -1.2

(list continues)
Sequence of screens: BasE inh, LANA-nucl inh
O=S(=O)(Nc1ccccc1N1CCCCC1)c1cccc2nonc12
    -0.3, /
COC(=O)c1ccc(S(=O)(=O)NCc2ccc(S(N)(=O)=O)cc2)n1C
    -1.5, 0.53
CCOC(=O)/C(C#N)=C/NC1CCCCNC1=O (configuration not stated)
    -1.7, 1.6
CCOc1ccc(CCCC(=O)O)cc1C
    5.0, -0.5
O=C(Nc1ccccc1)Nc1c[nH]c(=O)[nH]c1=O
    0.8, 0.069
CC(NC(=O)c1ccc2c(=O)n3c(nc2c1)CCCCC3)c1ccccc1 (configuration not stated)
    -1.0, 1.6
COc1ccc(-c2cc(C(F)(F)F)nc(NCc3cccnc3)n2)cc1OC
    -1.0, -0.15
CN1C(=O)NC(=O)/C(=C\c2ccc(O)cc2)C1=O
    -1.2, /
C=CCn1c(C)cc(C(=O)COC(=O)c2ccccc2O)c1C
    1.9, /
CCC(C)C(NC(=O)c1cc(C)oc1C)C(=O)O (configuration not stated)
    -0.1, 0.086
Cc1cc(NC(=O)CSc2nccc(=O)[nH]2)no1
    -0.1, /
CCc1ccccc1-n1nnc(C(=O)NCc2cccs2)c1N
    0.2, -0.1
COCCNC(=S)N1CCC(c2nc(-c3ccc(N(C)C)cc3)no2)CC1
    -0.4, 1.2
Cc1ccc(NC(=O)COC(=O)C2(CC(=O)N3CCOCC3)CCCC2)cc1C
    2.1, /
CCS(=O)(=O)c1ccc2oc(SCC(=O)NC(C)C3CC4CCC3C4)nc2c1 (configuration not stated)
    -0.9, /
CN(Cc1ccccc1)c1c2c(nc3nncn13)CCC2
    -0.3, -0.58
Cn1nc2c3ccccc3n(Cc3ccccc3)c2nc1=S
    -3.6, /
CCOC(=O)c1cc(-c2ccc(/C=C(\C#N)C(N)=C(C#N)C#N)o2)ccc1Cl
    6.5, -4.5*
N/C(=N\OCC(=O)Nc1ccccc1)c1nonc1N
    3.3, 0.1
Nc1nc(-c2ccc(NC(=O)c3ccco3)cc2)cs1
    1.5, /
Cc1ccc(/C=N/O)cc1
    -1.0, /
N#Cc1ccc(COC(=O)C(Cc2ccccc2)n2cnnn2)cc1 (configuration not stated)
    0.0, /
CC(C(=O)Nc1ccc2c(c1)OCO2)N1CCN(S(=O)(=O)c2ccc(Cl)s2)CC1 (configuration not stated)
    4.6, /
COC(=O)C1CCN(S(=O)(=O)c2ccc(Cl)cc2)CC1
    0.6, 0.28
COc1cc(Cl)ccc1N=Cc1c(O)c2c(=O)n(C)c(=O)n(C)c2n(C)c1=O
    1.1, -9
CCOC(=O)[C@H](CCc1ccccc1)N[C@H](C)C(=O)N1C2CCCCC2C[C@H]1C(=O)O (some centres not stated)
    -0.6, 0.55
CCc1oc2ccccc2c1/C=N/O
    -1.1, /
COC(Cn1c(SCC(=O)c2ccccc2)nnc1-c1ccccc1)OC
    0.6, -0.58
Nc1c(Cl)cc(Cl)c2nsnc12
    -3.7, /
Nc1ccccc1/C=C1\C(=O)Nc2ccccc21
    /, -1

The last four entries of the part above are carried over, then new ones follow:
| structure | BasE inh | LANA-nucl inh |
| --- | --- | --- |
| CCc1oc2ccccc2c1/C=N/O | -1.1 | / |
| COC(Cn1c(SCC(=O)c2ccccc2)nnc1-c1ccccc1)OC | 0.6 | -0.58 |
| Nc1c(Cl)cc(Cl)c2nsnc12 | -3.7 | / |
| Nc1ccccc1/C=C1\C(=O)Nc2ccccc21 | / | -1 |
| CNc1ccc2c(cc1=O)[C@@H](NC(C)=O)CCc1cc(OC)c(OC)c(OC)c1-2 | 1.0 | 0.8 |
| CC(C)CN1C(=O)c2cccnc2C1=O | -0.6 | -0.12 |
| COc1ccccc1NC(=O)c1oc2ccc3c(c2c1C)C(=O)CC(C)(C)O3 | -1.9 | 0.27 |
| Cc1cc(=O)[nH]c(-n2cc(C(=O)c3cc(F)ccc3O)cn2)n1 | 4.9 | / |
| CCN(CC)C(=S)Oc1c(C)c(C)nc(=S)n1CCCOC | -1.3 | 0.78 |
| Cc1nc(C)c(-c2nnco2)cc1C(=O)NN | 2.5 | / |
| O=C(/C=C/c1ccco1)Nc1cc(C(=O)O)cc(C(=O)O)c1 | 0.2 | -1.7 |
| Cc1[nH]c2ccccc2c1C(=O)Cn1ccsc1=N | -4.5 | / |
| Cc1onc(-c2ccccc2)c1CN1C(=O)c2ccccc2S1(=O)=O | 2.9 | / |
| NC(=O)c1oc2ccccc2c1NC(=O)C12CC3CC(CC(C3)C1)C2 | -0.1 | -1.2 |
| NC1CCC2CCCCC2C1 (configuration not stated) | -1.3 | / |
| CCOC(=O)Nc1ccc2c(c1)N(C(=O)CNC)c1ccccc1CC2 | -4.1 | -1 |
| CCN(CC)C(=S)Oc1ccc(I)cc1 | 0.3 | / |
| CC(C)(C)NC(=O)CCC1COc2ccccc2O1 (configuration not stated) | -2.0 | 0.48 |
| CC(C)(O)C(=O)N=Nc1c(O)[nH]c2ccccc12 | -1.9 | 0.33 |

Copied from the list.
Entry for NC(=O)c1oc2ccccc2c1NC(=O)C12CC3CC(CC(C3)C1)C2 in LANA-nucl inh: -1.2
Entry for CNc1ccc2c(cc1=O)[C@@H](NC(C)=O)CCc1cc(OC)c(OC)c(OC)c1-2 in LANA-nucl inh: 0.8
Entry for Cc1cc(=O)[nH]c(-n2cc(C(=O)c3cc(F)ccc3O)cn2)n1 in BasE inh: 4.9
Entry for CCN(CC)C(=S)Oc1ccc(I)cc1 in BasE inh: 0.3

(list continues)
| structure | BasE inh | LANA-nucl inh |
| --- | --- | --- |
| O=C(NCC(=O)N1CCc2ccccc2C1)c1cccs1 | -1.0 | / |
| COc1ccc(-c2c(N)nc(-c3ccc(Cl)cc3)nc2SC)cc1 | 2.8 | / |
| CC(C)C(=O)Nc1ccccc1C(=O)OCC(=O)c1ccc2c(c1)OCCO2 | 1.5 | / |
| COc1cccc(/C=N\NC(=O)c2n[nH]c3c2CCC3)c1 | -2.4 | -0.42 |
| Cc1ccc(-c2nc3scc(CCNS(=O)(=O)N(C)C)n3n2)cc1 | -3.2 | -0.053 |
| Brc1cccc2c3c4n(c12)CC1COC4(CCC3)O1 (configuration not stated) | -1.9 | 0.19 |
| CS(=O)(=O)NCc1ccccc1Cl | 0.0 | 0.32 |
| CCOc1ccc(Br)cc1S(=O)(=O)N(C)c1cccc(OC)n1 | 2.0 | / |
| C/C=C/C(=O)N1CCCC(c2nc(-c3cccc(OC)c3)no2)C1 (configuration not stated) | -2.2 | -0.21 |
| CC1CCCN(S(=O)(=O)c2ccc(C(=O)Nc3ccccc3-c3nc4ccccc4[nH]3)cc2)C1 (configuration not stated) | 0.5 | / |
| N#Cc1ccc(NC(=O)COC(=O)c2cccc(F)c2)cc1 | 3.1 | / |
| O=C(Cc1ccccc1)NCCc1nc2ccccc2[nH]1 | -0.7 | -0.36 |
| Cc1ccc(C(=O)Cn2cccn2)cc1 | / | 0.32 |
| CN(C)c1ccc(/C=C2\SC(=Nc3ccccc3)N(CCO)C2=O)cc1 | -8.1 | 0.34 |
| O=C(CCC1CCCC1)N1CCCC(c2nc(-c3ccc(F)cc3)no2)C1 (configuration not stated) | 2.1 | 0.15 |

Next section.
| structure | BasE inh | LANA-nucl inh |
| --- | --- | --- |
| Cc1nnc(NCC(C)O)[nH]c1=O (configuration not stated) | -1.2 | 0.12 |
| Cn1c(C(=O)N2CCCC2)cc2sccc21 | -0.1 | 0.048 |
| CN1/C(=C2/SC(=S)N(c3ccccc3)C2=O)Sc2ccccc21 | -0.9 | / |
| Oc1c(C=NCc2ccccc2)[nH]c2ccc(Br)c(Cl)c12 | -33 | / |
| COc1cc(OC)cc(C(=O)Nc2cc(C(=O)NCc3ccco3)ccc2N2CC3CC(C2)c2cccc(=O)n2C3)c1 (configuration not stated) | -1.0 | -0.71 |
| C=CCN(CC=C)Cn1nc(Nc2ccccc2F)sc1=S | 3.1 | / |
| NS(=O)(=O)c1ccc(NNC(=O)/C=C/c2cccs2)cc1 | -0.5 | / |
| COC(=O)C(C)Sc1nnc2c3ccccc3n(Cc3ccccc3)c2n1 (configuration not stated) | -0.1 | -0.71 |
| Cc1nc2ccc(NC(=O)c3cccs3)cc2o1 | / | 0.075 |
| O=C(CSc1ccccc1C(=O)N(Cc1ccncc1)Cc1cccnc1)N1CCCC1 | 1.4 | / |
| CCc1nc(SCC(=O)O)c(C#N)cc1C | 0.6 | -0.4 |
| CC(NC(=O)CN1CCCc2ccccc21)c1ccccc1 (configuration not stated) | -0.9 | / |
| O=C1CC2(CCCc3ccccc32)C(=O)N1CN1CCOCC1 (configuration not stated) | 2.6 | / |
| C=CCSC1=C(C#N)C2(CCCC2)C(C#N)C(=O)N1 (configuration not stated) | 0.8 | 0.031 |
| COC(=O)c1c(-c2ccc(C)c(C)c2)csc1NC(=O)C1CCCCC1C(=O)O (configuration not stated) | 0.6 | / |

New compounds follow
| structure | BasE inh | LANA-nucl inh |
| --- | --- | --- |
| Cc1nc2ccc(NC(=O)COCC(=O)O)cc2nc1C | 0.6 | -0.98 |
| CCOC(=O)C1=NNC2C(=O)N(c3cccc(Cl)c3C)C(=O)C12 (configuration not stated) | 0.5 | / |
| O=C(O)CSC(O)C(=O)c1ccccc1 (configuration not stated) | 3.2 | / |
| CS(=O)(=O)c1sc(C(=O)Nc2ccccc2Cl)c2c1C=CCC2 | -1.2 | / |
| O=C(/C=C/c1ccco1)OC(C(=O)Nc1ccc(F)cc1)c1ccccc1 (configuration not stated) | -2.6 | / |
| O=C(O)CCC(=O)NCc1ccccc1 | -0.8 | / |
| O=S(=O)(NCC1(N2CCCCC2)CCCCC1)c1cccs1 | 2.9 | / |
| CCOC(=O)N1CCC(NC(=O)c2ccc(CNS(=O)(=O)c3ccc(F)cc3)cc2)CC1 | 1.2 | 0.15 |
| Cc1oc(-c2ccc(Cl)cc2)nc1Cn1c(SCc2ccc(F)cc2)nc2ccncc21 | 0.4 | -1.5 |
| CCCCSc1nnc(Cn2c(=O)sc3ccccc32)n1C | -0.1 | 0.57 |
| COC(=O)c1ccc(NC(=O)COC(=O)CSc2nc(C)cc(C)n2)cc1 | -2.5 | 1 |

Source: PubChem BioAssay
